# Compound activity (PubChem BioAssay)
# hNpr1 antagonist = blocks ANP-stimulated signaling of human Npr1 receptor; AID 1347048; HEK293 hNpr1 GloSensor cGMP, ANP-stimulated luminescence; P16066; Potency, µM (titrated, usually from 46.3 µM), inactives show top-dose activity change, negative = inhibition, actives largely listed as inhibitors; 1.6% of 76,000 active; active = well fitted inhibition curve with a large enough effect; inconclusive = small, poorly fitted or top-dose-only effect; inactive = no such curve, though single readings can be large or run the other way;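 note: nearly all actives have a fitted effect of over 60% in size; nearly all hits also lower the signal before the agonist is added; a reference antagonist and vehicle were the controls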
# Target sequence (P16066 whole entry, looked up): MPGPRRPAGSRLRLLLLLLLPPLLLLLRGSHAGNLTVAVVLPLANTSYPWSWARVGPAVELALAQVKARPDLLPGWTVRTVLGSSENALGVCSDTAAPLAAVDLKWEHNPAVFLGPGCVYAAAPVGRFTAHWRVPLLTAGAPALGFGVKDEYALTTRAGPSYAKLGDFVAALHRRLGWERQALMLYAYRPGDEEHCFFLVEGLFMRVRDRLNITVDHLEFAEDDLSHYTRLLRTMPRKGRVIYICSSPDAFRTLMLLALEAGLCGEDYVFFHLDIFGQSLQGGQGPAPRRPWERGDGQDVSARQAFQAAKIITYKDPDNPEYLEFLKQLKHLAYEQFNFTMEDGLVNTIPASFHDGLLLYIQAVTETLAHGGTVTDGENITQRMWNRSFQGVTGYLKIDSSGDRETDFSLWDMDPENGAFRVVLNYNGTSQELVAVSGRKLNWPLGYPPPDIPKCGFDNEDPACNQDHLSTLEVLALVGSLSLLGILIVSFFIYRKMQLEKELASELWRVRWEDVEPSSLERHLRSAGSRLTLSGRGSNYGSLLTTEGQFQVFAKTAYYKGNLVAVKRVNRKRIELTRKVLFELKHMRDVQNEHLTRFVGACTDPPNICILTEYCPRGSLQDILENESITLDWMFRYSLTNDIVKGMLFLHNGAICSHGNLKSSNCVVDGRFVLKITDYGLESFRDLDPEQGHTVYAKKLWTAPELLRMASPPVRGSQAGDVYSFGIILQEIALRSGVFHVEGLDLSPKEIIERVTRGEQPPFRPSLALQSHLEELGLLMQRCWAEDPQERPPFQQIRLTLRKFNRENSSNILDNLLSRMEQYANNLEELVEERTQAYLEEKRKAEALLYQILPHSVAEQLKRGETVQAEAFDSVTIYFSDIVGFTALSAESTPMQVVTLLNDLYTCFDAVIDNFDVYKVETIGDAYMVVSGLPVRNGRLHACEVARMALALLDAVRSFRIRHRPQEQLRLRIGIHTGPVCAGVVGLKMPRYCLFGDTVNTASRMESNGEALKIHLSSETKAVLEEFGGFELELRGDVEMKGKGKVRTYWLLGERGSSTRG
#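 Compound pre-incubated 30 min at room temperature on GloSensor-loaded HEK293 cells stably carrying hNpr1 and the pGS-40F cGMP biosensor. Stimulation uses hNppA at 0.1 nM final; luminescence is taken at baseline and 20 min post-agonist.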
# The depositor's hits bear a star; u = inconclusive; & = joins results of further samples; [ ] = dose if it differs, or a comment. % is set by controls: 0 for no effect and ±100 for the full control effect; potency is the fitted concentration of half-maximal effect. The list is partial; rates above refer to the full screens.
hNpr1 antagonist | structure
-18%[70.6 µM] | CC(=O)N1CCN(c2cc(-c3noc([C@@H]4CCCN4C4CCC4)n3)ccn2)CC1
1% | CC(=O)c1c(C)nn(CCC(=O)N[C@@H]2CCOC[C@H]2OCCO)c1C
2% | CN1CCN(Cc2ccccc2Oc2ccc(C(F)(F)F)cn2)CC1
3%[70.6 µM] | O=C(NCc1ccccc1)c1nc2c(o1)CCN(Cc1c(F)cccc1F)CC2
1% | O=C1Nc2ccccc2OCC12CCN([S+](=O)([O-])c1ccccc1)CC2
-7%[70.6 µM] | N#Cc1cccc(CN2C[C@H](O)C[C@H]2c2nc(Cc3ccccc3)no2)c1
-1% | Cc1cc(C(=O)N2C[C@@H](COCC3CC3)[C@H](c3ccccn3)C2)c(C)o1
5% | Cc1nc(CN2C(=O)OC3(CCN(C(=O)Cc4ccc5c(c4)OCO5)CC3)C2(C)c2ccccc2)cs1 (configuration not stated)

# Later entries:
hNpr1 antagonist | structure
2%[70.6 µM] | Cc1noc(C)c1-c1cc2cc(CN(C)C)oc2c(NCc2ccccc2)n1
11% | O=[S+]([O-])(c1ccccc1)N1CCn2c(nnc2C2CCCNC2)C1 (configuration not stated)
1% | COc1ccccc1CCC(=O)N(C)C1CCc2nn(CC3CC3)c(=O)n2CC1 (configuration not stated)
-1% | COC[C@@H]1CN(S(=O)(=O)C(C)C)C[C@H]1c1ccncc1
-15% | O=C(NC1CCCN(c2cc(-c3ccc(F)cc3)[nH]n2)C1)c1ccccc1Cl (configuration not stated)
27%[70.6 µM] | CC(c1cccs1)N(C)S(C)(=O)=O (configuration not stated)
6% | COc1cccc(CNC(=O)N2CCC(N3CC4CC(C3)[C@H]3CCCC(=O)N3C4)CC2)c1 (some centres not stated)
4% | COc1ccc(-c2nc3nccc(-c4ccco4)n3n2)c(OC)c1

# (cont.)
hNpr1 antagonist | structure
4%[70.6 µM] | O=C(NC[C@H]1O[C@H](Cc2cc(-c3ccccc3)on2)CC[C@@H]1O)N1CCOCC1
-1% | Cc1nn(C)c(C)c1CCNC(=O)CCC[C@H]1NC[C@@H]2C[C@H]1CN(Cc1ccccc1)C2
-1% | CCCNC(=O)NC1CCc2nn(CC3CC3)c(=O)n2CC1 (configuration not stated)
-7% | Cc1ccccc1CN1CCC2(C1)C(=O)N(C)C(=O)N2C (configuration not stated)
-6%[70.6 µM] | O=C1CO[C@H]2CN(c3ncccn3)C[C@H]2N1CC1CCCCC1
-23%[70.6 µM] | CCOC(=O)C[C@@H]1C[C@@H](C(C)C)[C@H](CNC(=O)c2ccc(C#N)cc2)C=C1C
0% | O=C1COc2cc(C(=O)NCC3CCOc4ccccc4C3)ccc2N1 (configuration not stated)
-1%[70.6 µM] | O=C(NC[C@H]1O[C@H](Cc2cc(COc3ccccc3)on2)CC[C@@H]1O)c1ccccc1

# Remaining list, next part:
hNpr1 antagonist | structure
-3%[70.6 µM] | Cc1ccccc1-c1cn(C)c(=O)n2cc(CNc3ccccc3)nc12
0% | CN1C(=O)CS(=O)C12CCNCC2 (configuration not stated)
-9% | C=CCN(Cc1nc(-c2ccccc2)no1)C(=O)c1cccc(OC)c1OC
-6% | Cc1noc(-c2cccc(OC3CN(S(=O)(=O)c4c(C)nn(C)c4C)C3)c2)n1
-2%[70.6 µM] | N#Cc1ccc(CN2CCc3nc(C(=O)N4CCOCC4)oc3CC2)cc1
-15%[70.6 µM] | COc1ccc(-c2cnc3[nH]cc(CC(=O)N4CCNC(=O)C4)c3c2)cc1
u | CCc1csc(CNC(=O)C(CC)n2cc(C(C)=O)c3ccccc32)n1 (configuration not stated)
0% | CSCC(=O)N1CC[C@H](NC(=O)Nc2cccc(SC)c2)[C@H]1C(=O)N[C@@H](Cc1cccs1)C(N)=O

# Carrying on.
hNpr1 antagonist | structure
9% | CN(Cc1ccncn1)C(=O)C1C2C(=O)N(CCc3ccncc3)C[C@@]23C=C[C@@H]1O3 (some centres not stated)
6% | COc1cccc(NC(=O)N[C@H]2CCN(C(=O)c3cccn3C)[C@@H]2C(=O)N[C@H](Cc2ccccc2)C(N)=O)c1
-5% | Cc1cccc(C(=O)N2CC(Oc3ccc(-c4nc(-c5ccccc5)no4)cc3)C2)c1
2% | CCc1noc(-c2ccn3c(CNC(=O)c4c(F)cccc4F)nnc3c2)n1
1% | O=C(Nc1ccc(-c2nnc3n2CCCC3)cc1)c1ccc2ccccc2n1
-10% | COCC1CN(Cc2cc(F)cc(Br)c2)CC12CCNCC2 (configuration not stated)
u | O=C(Cc1cccc(Cl)c1)N1CCC(n2cc(-c3nc(-c4ccccc4)no3)nn2)C1 (configuration not stated)
3% | Cc1ccc(-c2cc(N3CCCN(C(=O)c4nn(C)c5ccccc45)CC3)n[nH]2)cc1C

# Additional entries
hNpr1 antagonist | structure
7% | COc1ccc(C2Cn3nnc(-c4noc(-c5cccc(F)c5)n4)c3CO2)cc1 (configuration not stated)
3% | Cc1nc([C@@H]2CN(C(=O)CCc3nc4ccccc4[nH]3)C[C@H]2C(N)=O)n[nH]1
9% | Cn1ncnc1CCNC(=O)c1cn(CCC2CCCCN2)nn1 (configuration not stated)
0% | CCN1c2cc(C(=O)NCc3cc(OC)ccc3OC)ccc2C(=O)N2CCCCC21 (configuration not stated)
-7% | Cc1ccc(-c2noc([C@@H]3CCCN3C(=O)c3ccc(Cl)cc3)n2)cc1
6% | O=C(c1ccco1)N1CCC(c2nc(C3CCOCC3)no2)CC1
2% | CCc1noc(-c2cccn3c(CNC(=O)c4cccc(OC)c4)nnc23)n1
2% | Cc1nc(C)c(C(=O)N2CCCC(n3c(C)cnc3C3CCC3)C2)s1 (configuration not stated)

# Other compounds:
hNpr1 antagonist | structure
1% | Cc1nc2ncnn2c(C)c1CCC(=O)N1CCCC(Nc2ccccc2)C1 (configuration not stated)
-15%[70.6 µM] | Cc1ccc(CN[C@@H]2CO[C@H](CNC(=O)N3CCOCC3)[C@H]2O)cc1
5% | O=C1NCCCCCCN(C(=O)c2ccncc2)[C@H]2CCC[C@@H]12
-11% | Cc1ccccc1S(=O)(=O)N1CCC(n2cnnc2C(C)C)CC1
12% | COCC[C@]1(O)CCN(C(=O)CCCc2cccs2)C[C@H]1C
3% | O=C(NCCc1ccncc1)C1CN(C(=O)C2CCCC2)CC12CCOCC2 (configuration not stated)
u | CCc1cccc(NC(=O)c2cc3n(n2)CC(c2ccc(Cl)cc2)OC3)c1 (configuration not stated)
10% | Cn1cnc(C(=O)N2CCC(N3C(=O)C4(CCCC4)C3c3ccccc3)CC2)c1 (configuration not stated)

# New compounds follow.
hNpr1 antagonist | structure
u | O=C(Nc1cccc(Cl)c1)C1=NO[C@@H]2CN(Cc3cccnc3)C[C@H]12
4% | O=C(CCn1cnnn1)N1CCC2(CC1)Nc1ccccc1NC2=O
-1% | Cc1cnc(C2CC2)n1CCNS(=O)(=O)c1ccccc1F
-21% | O=C(c1ccccn1)N1CCC(Oc2ccc(-c3noc(-c4ccccc4)n3)cc2)C1 (configuration not stated)
6% | CCOc1ccccc1CN1CCC2(CCN(C(=O)Cc3ccc(F)cc3)CC2)Oc2ccccc21
0% | COc1ccc(S(=O)(=O)NCC2CCCN(C(=O)c3cccnc3C)C2)cc1 (configuration not stated)
32µM* | COc1ccc(C(=O)N[C@H]2CO[C@H]3[C@@H]2OC[C@H]3OC(=O)Nc2ccccc2)cc1
6% | COc1cccc(-c2nnnn2[C@H]2CO[C@H]3[C@@H]2OC[C@@H]3NS(=O)(=O)c2ccc(NC(C)=O)cc2)c1

# (list continues)
hNpr1 antagonist | structure
2% | Cc1cccc(C(=O)N2CCC3(CC2)CC(c2ccccc2)C(=O)N3C)c1C (configuration not stated)
1% | CCOc1cccc(CN2CCCC(CNC(=O)c3cccc(OC)c3OC)C2)c1 (configuration not stated)
-3% | COc1ccc(OC)c(S(=O)(=O)N2CCOCCNC(=O)[C@H]3CCCC[C@H]32)c1
1% | Cc1noc(C2CC3(CCN(C(=O)C4CCC4)CC3)CN2C)n1 (configuration not stated)
1%[70.6 µM] | CN1CCC(N[C@@H]2CO[C@H](CNC(=O)N3CCOCC3)[C@H]2O)CC1
16%[70.6 µM] | COc1ccc(C(=O)N2CCC(N3CCCCCC3=O)CC2)cc1
-9%&3% | COc1ccc(-c2nc(C(C)C)nc3c2CCN(C(=O)c2ccc(Cl)nc2)CC3)cc1
4%[70.6 µM] | O=C(N[C@H]1CCN2C(=O)N(c3ccc(F)c(Cl)c3)C(=O)[C@@H]2C1)c1ccncc1

# (further entries)
hNpr1 antagonist | structure
-9% | CN(C)c1nc(-c2ccncc2)nc2c1CCN(C(=O)c1ccn[nH]1)C2
-26%[70.6 µM] | CC(C)(Oc1nn(Cc2cccc(Cl)c2)c2ccccc12)C(=O)NC1CCOCC1
u | CC(=O)c1c(C)nn(CCC(=O)NCc2noc(-c3ccccc3)n2)c1C
-2%[70.6 µM] | COc1ccc(CNC[C@H]2COCc3nc4cccnc4n32)cc1
1% | COc1cccc(C(=O)N2C[C@@H](F)C[C@H]2C(=O)N2CCOCC2)c1
-13% | CCOC(=O)C1(Cc2ccc(OC)cc2)CCN(C(=O)c2cccc(Cl)c2)CC1
0% | CN1c2cc(C(=O)N3CCN(c4ccccc4)CC3)ccc2C(=O)N2CCCCC21 (configuration not stated)
-19% | O=C(NC1CCCN(c2cc(-c3ccc(Cl)cc3)[nH]n2)C1)c1ccoc1 (configuration not stated)

# Next section; it opens with the 6 that closed the last part.
hNpr1 antagonist | structure
u | CC(=O)c1c(C)nn(CCC(=O)NCc2noc(-c3ccccc3)n2)c1C
-2%[70.6 µM] | COc1ccc(CNC[C@H]2COCc3nc4cccnc4n32)cc1
1% | COc1cccc(C(=O)N2C[C@@H](F)C[C@H]2C(=O)N2CCOCC2)c1
-13% | CCOC(=O)C1(Cc2ccc(OC)cc2)CCN(C(=O)c2cccc(Cl)c2)CC1
0% | CN1c2cc(C(=O)N3CCN(c4ccccc4)CC3)ccc2C(=O)N2CCCCC21 (configuration not stated)
-19% | O=C(NC1CCCN(c2cc(-c3ccc(Cl)cc3)[nH]n2)C1)c1ccoc1 (configuration not stated)
4% | Cn1cnc(S(=O)(=O)N2CCc3nnc(C4CC4)n3CC2)c1
6% | COc1cccc(NC(=O)[C@@H]2C[C@@H](c3cccc(C(F)(F)F)c3)N(Cc3cnn(C)c3)C2)c1
2% | Nc1nc(CCCNC(=O)C2NCCc3[nH]cnc32)cs1 (configuration not stated)
0% | CN1c2cc(C(=O)NCc3ccc(OC(F)(F)F)cc3)ccc2C(=O)N2CCCCC21 (configuration not stated)
-3%[70.6 µM] | COc1ccc([C@H]2C[C@@H](O)[C@@H](O)[C@@H]2NC(=O)c2ccccc2OC)cc1
22% | CC(=O)Nc1ccc(CN2CCN(c3cc(Cl)ncn3)C(=O)C2)cc1
-1% | CC(C)C(=O)NCCc1noc(Cc2ccccc2)n1
-3% | Cc1noc([C@@H]2CN(C(=O)c3ocnc3C)C[C@H]2COCC2CC2)n1

# The listing continues:
hNpr1 antagonist | structure
-1% | CC(C)COc1cc(=O)n2c(c1C(=O)N1CCOCC1)CCCCC2
4%[70.6 µM] | CNC(=O)[C@@H](C1CC1)N1CCC[C@H]1C(=O)N1CCOCC1
-1%[70.6 µM] | COCc1cc(C[C@H]2CNCC[C@H]2CC(=O)NCc2cccs2)no1
-3% | CCCNC(=O)C1CCc2sc(C(=O)N(C)C)cc2C1 (configuration not stated)
-2% | O=C(CC1CCc2ccccc21)N1CCCN(c2ncccn2)CC1 (configuration not stated)
-26% | Cc1cccc(CC(=O)N2CCC(Cc3nc(-c4ccccc4)no3)CC2)c1
3% | COc1cccc(CC(=O)NCC(=O)N2CCCCCCNC(=O)CC2c2ccccc2)c1 (configuration not stated)
-10% | COCC1CN(C2CCC2)CC12CCN(C(=O)Cc1ccc(OC)cc1)CC2 (configuration not stated)

# Continued:
hNpr1 antagonist | structure
-22% | CCOC(=O)C1=C(C)N=C2SC=C(CC(=O)N(C)CC)N2C1c1cccc([N+](=O)[O-])c1 (configuration not stated)
8% | CN(C)c1ccc(C(=O)N2CCN(C(=O)NC3CCCCC3)[C@H](C(=O)N[C@@H](CC3CCCCC3)C(N)=O)C2)cc1
-10% | COCC(=O)NC1CCC12CCN(C(=O)Nc1ccc3c(c1)OCCO3)CC2 (configuration not stated)
0%[70.6 µM] | CC(C)n1nc(OC(C)(C)C(=O)Nc2ccccc2)c2cc(CN3CCOCC3)ccc21
6% | CNC(=O)Nc1ccc(C)n(CC(=O)NCc2cccc(C)c2)c1=O
-28% | CC(=O)Nc1ccc(S(=O)(=O)N[C@H]2CO[C@H]3[C@@H]2OC[C@H]3OC(=O)Nc2cccc3ccccc23)cc1
-11%[70.6 µM] | CN(C)CCNC(=O)Cc1c[nH]c2ncc(-c3ccccc3)cc12
0% | O=C1NC2(CCCN(C(=O)c3ccc4c(c3)OCO4)C2)Oc2ccccc21 (configuration not stated)

# Next section:
hNpr1 antagonist | structure
0% | CNC(=O)[C@@H]1C[C@H](n2cc(CNC(=O)Nc3cc(F)ccc3F)nn2)CN1
16µM* | O=C(NC[C@H]1O[C@H](Cc2cc(-c3ccc(F)cc3)on2)CC[C@@H]1O)c1ccc(F)cc1
u | CC(=O)NC1(C)CCCN(Cc2cccc(-c3ccc4c(ccn4C)c3)c2)C1 (configuration not stated)
3% | CCN1C(=O)C2CC3(CCN(C(=O)c4ccoc4)CC3)CN2C1=O (configuration not stated)
-3% | Cc1nc(N2CCN(C(=O)c3ccc(C#N)cc3)CC2)cc(C(F)(F)F)n1
3% | Cc1ccc(C(C(=O)NCc2cc(=O)[nH]cn2)N(C)C)cc1 (configuration not stated)
-22% | COCCn1nc2n(c1=O)CCN(S(=O)(=O)c1ccc(Cl)s1)CC2
-3%[70.6 µM] | CN1CC(=O)N(c2ccccc2F)Cc2c(NC3CCCC3)ncnc21

# Reprinted at random: 2 compounds from above.
hNpr1 antagonist | structure
-22% | COCCn1nc2n(c1=O)CCN(S(=O)(=O)c1ccc(Cl)s1)CC2
-3% | Cc1nc(N2CCN(C(=O)c3ccc(C#N)cc3)CC2)cc(C(F)(F)F)n1
